GIRK2 act: opens human GIRK2 potassium channels. HEK293-GIRK2 thallium flux, Thallos fluorescence. calls only for hits at 25 µM. 0.05% of 63,000 active. P48051;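 active = among the strongest 0.2% of first-round signals and kept after retests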;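 note: first round at about 10 µM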
Target sequence (P48051 whole entry, looked up): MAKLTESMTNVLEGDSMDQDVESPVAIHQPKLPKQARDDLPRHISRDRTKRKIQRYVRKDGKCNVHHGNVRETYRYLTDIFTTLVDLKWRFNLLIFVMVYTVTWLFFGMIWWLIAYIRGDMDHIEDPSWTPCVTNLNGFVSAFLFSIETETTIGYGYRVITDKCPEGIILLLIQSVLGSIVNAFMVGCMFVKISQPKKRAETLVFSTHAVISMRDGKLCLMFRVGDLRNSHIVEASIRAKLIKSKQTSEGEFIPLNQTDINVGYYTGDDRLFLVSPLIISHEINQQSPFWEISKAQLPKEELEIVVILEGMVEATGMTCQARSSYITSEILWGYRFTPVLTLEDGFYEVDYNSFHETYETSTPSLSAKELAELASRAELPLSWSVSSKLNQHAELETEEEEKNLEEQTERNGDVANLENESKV
Calls only; i = inactive. An excerpt (hit frequency here may not be typical).

| Molecule | GIRK2 act |
| --- | --- |
| CC(=O)Nc1nc2c(s1)CN(CC(=O)Nc1ccc(OC(F)(F)F)cc1)CC2 | i |
| O=C(CCC/C=C\C[C@@H]1C(/C=C/[C@@H](O)COc2cccc(C(F)(F)F)c2)[C@H](O)C[C@@H]1O)NC(CO)CO (some centres undefined) | i |
| COc1cccc(CNC(=O)CC2=NS(=O)(=O)c3ccccc3N2)c1 | i |
| O=C(Nc1ccc2c(c1)N(S(=O)(=O)c1ccccc1)CCC2)Nc1cccs1 | i |
| O=C(Cn1cnc2c(nnn2Cc2ccc(F)cc2)c1=O)c1ccccc1 | i |
| O=c1[nH]c(N2CCC3(CC2)OCCO3)nc2c(-c3ccccc3Cl)csc12 | i |
| CCOc1ccc(C(=O)CC2c3c(cc4c(c3OC)OCO4)CCN2C)cc1 (centres undefined) | i |
| CCn1cc(-c2nc(-c3ccccc3)no2)c(=O)c2cc(F)ccc21 | i |
| O=C(Nc1ccc2c(c1)N(C(=O)c1ccccc1)CCC2)c1ccc2c(c1)OCO2 | i |
| CCCC(=O)NCc1n[nH]c(=O)c2ccccc12 | i |
| Cc1cn2c3c(=O)n(Cc4ccccc4F)c(=O)n(C)c3nc2n1-c1ccccc1O | i |
| CC(C)CNC(=O)Cc1ccc(-n2c(=O)c3ccccc3n(CC(=O)NCc3ccccc3)c2=O)cc1 | i |
| O=C(CN1C(=O)CC(c2cccs2)CC1=O)NCc1ccccc1 | i |
| O=C(Cc1ccc(NC(=O)c2ccc(OC(F)(F)F)cc2)cc1)NC1CC1 | i |
| COCCN(Cc1ccsc1)C(=O)C1(c2ccc(Cl)cc2)CCCC1 | i |
| CCOC(=O)c1cnn2ccc(NC(=O)/C=C/c3ccccc3)cc12 | i |
| COc1cc(OC)c2c(=O)c(-c3ccccc3OC)coc2c1 | i |
| Cc1noc(C2(NC(=O)c3ccc4c(c3)OCO4)CCCCC2)n1 | i |
| COC(=O)c1ccc(CSc2nnc(Cn3ccc(=O)[nH]c3=O)o2)o1 | i |
| O=C(c1ccc(S(=O)(=O)NC2CC2)o1)N1CCN(c2cccc(Cl)c2)CC1 | i |
| CC(Oc1ccccc1)C(=O)Nc1ccc(S(=O)(=O)N2CCN(C)CC2)cc1 (centres undefined) | i |
| Cc1ccc(/C=C/S(=O)(=O)NCC2(O)CCOCC2)cc1 | i |
| COc1cccc(-n2ccn(CC(=O)Nc3ccc(Br)cc3)c(=O)c2=O)c1 | i |
| O=C(CCCS(=O)(=O)Cc1ccccc1)Nc1ccc2c(c1)OCCO2 | i |
| Cc1ccccc1-c1noc(CN2N=NC3C(=O)N(c4ccc(F)c(Cl)c4)C(=O)C32)n1 (centres undefined) | i |
| O=C1NC(=N[C@H](CO)c2ccccc2)S/C1=C\c1ccc2ncccc2c1 | i |
| CCOc1ccccc1NC(=O)C(=O)NCCC(O)c1ccc2c(c1)OCO2 (centres undefined) | i |
| COCCNC(=O)C(=O)NCCc1ccoc1 | i |
| COC(=O)N1CCN(c2ccc(-c3noc(C(F)(F)F)n3)cn2)CC1 | i |
| O=C(NCCOc1ccccc1)c1ccccc1[N+](=O)[O-] | i |
| CCOc1ccc(C(=O)Cn2nc(-c3cccs3)c3sc(N4CCCCC4)nc3c2=O)cc1 | i |
| COC(=O)N1CCC(CNC(=O)Nc2ccc(C)c(C)c2)CC1 | i |
| COc1ccc(CNC(=O)c2ccc(-n3nc(C)c(C)c3C)nc2)cc1 | i |
| CCCn1c(C2CC(=O)N(c3cccc(OC)c3)C2)nc2ccccc21 (centres undefined) | i |
| CCCS(=O)(=O)Nc1cnc(N(C)C)nc1 | i |
| COc1ccc(CCNC(=O)c2nnn(-c3ccc(F)cc3)c2-c2ccncc2)cc1OC | i |
| CCOC(=O)c1sc2ncc(S(=O)(=O)c3ccc(OC)cc3)c(=O)n2c1C | i |
| CCn1cc(-c2nc(-c3ccc(C)cc3)no2)c(=O)c2cc(F)c(N3CCOCC3)cc21 | i |
| COc1ccc(OC)c(NC(=O)Cn2nc3c4c5c(sc4ncn3c2=O)CCCC5)c1 | i |
| Cc1cc(=O)n(CCNS(=O)(=O)c2cc(Cl)c(Cl)cc2Cl)cn1 | i |
| Cc1c(Cl)cccc1NC(=O)Cn1nc(-c2ccc(F)cc2)c2sc(N3CCCC3)nc2c1=O | i |
| CCSc1ccccc1C(=O)NCC#CCN(C(C)C)C(C)C | i |
| Cc1ccc(-n2nnc(C(=O)Nc3cccc(OC(F)F)c3)n2)cc1 | i |
| Cc1noc(C)c1S(=O)(=O)NCC(c1cccs1)S(=O)(=O)c1ccc(F)cc1 (centres undefined) | i |
| O=C1CC(c2nc3ccccc3n2Cc2ccc(Cl)cc2)CN1c1ccccc1F (centres undefined) | i |
| O=C(NCC1(c2ccc(F)cc2)CC1)C(=O)Nc1cccc(N2CCCCC2=O)c1 | i |
| O=C(NCc1c(F)cccc1F)c1csc(-c2cnccn2)n1 | i |
| CC(C)(C)OC(=O)NCc1nc2ccccc2n1CC(=O)O | i |
| CCc1cccc(C)c1NC(=O)Cn1c(-c2ccccc2)nc(C)c(Cl)c1=O | i |
| COc1cc(NC(=O)Cn2c(C)cc(C)c(-c3nc(-c4ccccc4)no3)c2=O)cc(OC)c1 | i |
| CNC(=O)C(=O)c1cn(CC(=O)N2CCOCC2)c2ccccc12 | i |
| O=C(Cn1nc2c(c1NC(=O)Cc1cccs1)CSC2)NCc1ccco1 | i |
| CCOC(=O)C(C)(C)Sc1nnc(N2CCN(c3ccccc3)CC2)s1 | i |
| COc1cccc(-c2cc(C(=O)N3CC(c4nc(-c5cccs5)no4)C3)[nH]n2)c1 | i |
| CC(C)CCNC(=O)C1CCC(Cn2c(=O)c3sccc3n(CC(N)=O)c2=O)CC1 (centres undefined) | i |
| O=C(O)C1CCCCC1C(=O)Nc1ccccc1 (centres undefined) | i |
| CN(c1ccsc1C(=O)NC1CC1)S(=O)(=O)c1ccccc1 | i |
| C=CC1(C)CC(OC(=O)/C(C)=C\COC(C)=O)C(C(=C)C(=O)OC)C(O)C1C(=C)CO (centres undefined) | i |
| Cn1nc(-c2cccc(NC(=O)c3ccc4ccccc4n3)c2)ccc1=O | i |
| CCOc1ccc(C(=O)Nc2cc(C(=O)N3CCCC3)cn(C)c2=O)cc1OCC | i |

Part of the list above, field by field.
O=C1NC(=N[C@H](CO)c2ccccc2)S/C1=C\c1ccc2ncccc2c1
  GIRK2 act: i
CCOc1ccccc1NC(=O)C(=O)NCCC(O)c1ccc2c(c1)OCO2 (centres undefined)
  GIRK2 act: i
COCCNC(=O)C(=O)NCCc1ccoc1
  GIRK2 act: i

(more compounds)
| Molecule | GIRK2 act |
| --- | --- |
| CCN1CCN(c2c(S(=O)(=O)c3ccc(C)cc3)cnc3ccc(F)cc23)CC1 | i |
| O=C(CSC1CCCC1)Nc1nc2c(s1)COCC2 | i |
| COc1cc(COCC2CCN(S(=O)(=O)Cc3ccc(F)cc3)CC2)cc(OC)c1 | i |
| O=C(c1ccccc1NS(=O)(=O)c1ccc(Cl)cc1)N1CCN(c2ccccc2)CC1 | i |
| Cc1cc(C)c2nc(C)cc(NC(=O)CCN3C(=O)c4ccccc4C3=O)c2c1 | i |
| O=C(CN1CCN(C(=O)CSCc2ccccc2)CC1)c1ccco1 | i |
| COc1ccc(-n2nnc(C(=O)Nc3ccc(-c4nc5ccc(C)cc5s4)cc3)n2)cc1 | i |
| COc1cc(NC(=O)CN2CCC(c3nc(-c4cccc(C)c4)no3)CC2)cc(OC)c1 | i |
| CCCOC(=O)c1ccc(OCC#N)cc1 | i |
| CC(CO)(CO)NC(=O)c1nnn(-c2ccc(Br)cc2)n1 | i |
| COc1ccc(S(=O)(=O)N2CCCOC2CNC(=O)C(=O)NCCO)cc1C (centres undefined) | i |
| CCCCOc1ccc(NC(=O)N2CC(c3nc(C)no3)C2)cc1 | i |
| CS(=O)(=O)N1CCc2nc(NC(=O)/C=C/c3ccccc3Cl)sc2C1 | i |
| CC(C)(Oc1ccc(Cl)cc1)C(=O)Nc1c2c(nn1C(C)(C)C)CSC2 | i |
| COc1cc(C(=S)N2CCN(C)CC2)cc(OC)c1OC | i |
| COc1ccccc1Oc1cn[nH]c1-c1ccc(O)cc1O | i |
| O=C(c1ccc(-n2cccc2)cc1)N1CC(c2nc(-c3ccccn3)no2)C1 | i |
| O=C(Nc1cc(N2CCOCC2)ncn1)C1c2ccccc2Oc2ccccc21 | i |
| COc1ccc(CCNC(=O)Nc2ccc3c(c2)N(S(=O)(=O)c2ccccc2)CCC3)cc1 | i |
| COc1ccc(CCC(=O)Nc2ccc3c(c2)CCCN3C(=O)c2ccccc2)cc1 | i |
| COCCCn1c(SCc2nc(-c3ccc(C)cc3)oc2C)nc2ccccc2c1=O | i |
| O=C1c2oc3ccccc3c(=O)c2C(c2ccc(F)cc2)N1CCc1ccccc1 (centres undefined) | i |
| CC(C)Sc1ccc(CC(=O)Nc2ccc(CC(=O)NC3CC3)cc2)cc1 | i |
| COc1ccc(OCc2noc(CNC(=O)c3ccccc3C(F)(F)F)n2)cc1 | i |
| CCOc1ccc(-c2[nH]ncc2Oc2ccccc2Br)c(O)c1 | i |
| Cc1cc(Nc2ccc(NC(=O)Cc3c[nH]c4ccccc34)cc2)nc(N2CCCC2)n1 | i |
| Cn1c(=O)c2c(nc3n2CCN3CC(N)=O)n(C)c1=O | i |
| COc1ccc(/C=C/C(=O)Nc2cc(N3CCN(Cc4ccccc4)CC3)ncn2)cc1 | i |
| CCOC(=O)CCC(=O)N1CCC(C(=O)NCc2nc(C)no2)CC1 | i |
| COc1ccccc1NC(=O)Cn1nc2c(Oc3ccccc3C)nccn2c1=O | i |

Of the compounds above, these have a COOH group.
| Molecule | GIRK2 act |
| --- | --- |
| CC(C)(C)OC(=O)NCc1nc2ccccc2n1CC(=O)O | i |
| O=C(O)C1CCCCC1C(=O)Nc1ccccc1 (centres undefined) | i |

(next part)
| Molecule | GIRK2 act |
| --- | --- |
| CC1(C)Cc2cccc(OCC(=O)NCC3COC4(CCCCC4)O3)c2O1 (centres undefined) | i |
| COc1ccccc1NC(=O)NCCC(O)c1cccc2ccccc12 (centres undefined) | i |
| Cc1noc(C)c1CN1CCN(C(=O)C2CC(=O)N(c3ccccc3)C2)CC1 (centres undefined) | i |
| Cc1ccc(N2CC(C(=O)NCC(O)c3ccoc3)CC2=O)cc1C (centres undefined) | i |
| O=C(NCC#CCOc1cccc(C(F)(F)F)c1)c1ccc(=O)[nH]n1 | i |
| CC(=O)Nc1ccc(C(=O)NCCNC(=O)c2cccc(Cl)c2)cc1 | i |
| CC1CCCN(S(=O)(=O)c2ccc(NC(=O)c3cc(-c4ccccc4)on3)cc2)C1 (centres undefined) | i |
| Cc1ccccc1Cn1nc(-c2ccccc2)ccc1=O | i |
| Cc1ccc(S(=O)(=O)N(C)CC(=O)NCC(O)Cn2c3ccccc3c3ccccc32)cc1 (centres undefined) | i |
| Cn1cc(CC(=O)Nc2cc(-n3cccn3)ncn2)c2ccccc21 | i |
| CCOC(=O)CCC(=O)Nc1ccccc1NC(=O)c1ccccc1C(F)(F)F | i |
| CCCc1cc2c(O)c(-c3nc4ccccc4s3)c(=O)oc2cc1O | i |
| CCCc1cc2c(=O)c(-c3ccc4c(c3)OCCO4)c(C)oc2cc1OCC(N)=O | i |
| COc1ccc(CC(=O)Nc2nc3c(s2)COCC3)cc1OC | i |
| Cc1cc(C)cc(NC(=O)Cn2cc(-c3ccccc3)c3ncn(C(C)C)c(=O)c32)c1 | i |
| O=c1c(NCc2ccc3c(c2)OCO3)nccn1-c1ccc(Br)cc1 | i |
| CCC(=O)Nc1ccc(S(=O)(=O)Nc2ccc3c(c2)CCCN3C(=O)c2ccccc2)cc1 | i |
| CC(=O)c1ccc(N2CCN(C(=O)C(c3ccccc3)n3cccc3)CC2)cc1 (centres undefined) | i |
| NNC(=O)COc1ccc2c(c1)O/C(=C\c1c(F)cccc1Cl)C2=O | i |
| CCCCN1C(=O)CCc2cc(NC(=O)c3ccc(OCC)c(OCC)c3)ccc21 | i |
| Cc1noc(C)c1S(=O)(=O)N1CCC(Oc2ccc(C(F)(F)F)cn2)CC1 | i |
| O=S(=O)(N1CCCCCC1)N1CCN(c2cccc(Cl)c2)CC1 | i |
| Cc1c(-c2nn3c(Cc4ccccc4)nnc3s2)nnn1-c1ccc([N+](=O)[O-])cc1 | i |
| C#CC(C)(CC)OCC(O)CN1CCN(c2ccccc2OC)CC1 (centres undefined) | i |
| Cc1cc(=O)n2c(-c3cccc(NC(=O)COc4ccc5c(c4)OCO5)c3)csc2n1 | i |
| Cc1c(CN2CCOCC2)sc2nc(-c3ccccc3)cn12 | i |
| C/C=C/Cn1c(=O)c2c(nc3n(-c4ccccc4O)c(C)c(C)n23)n(C)c1=O | i |
| Cc1cc(C)n(-c2ccnc(N3CCC4(CC3)OCCO4)n2)n1 | i |
| Cc1cc(C)n(-c2ccc(=O)n(C(C)C(=O)Nc3cccc(NS(C)(=O)=O)c3)n2)n1 (centres undefined) | i |
| Cc1cccc2sc(NC(=O)c3nnn(-c4ccc(F)cc4)n3)nc12 | i |

Some of the entries so far, as labelled records.
SMILES: Cc1c(CN2CCOCC2)sc2nc(-c3ccccc3)cn12
  GIRK2 act: i

SMILES: O=S(=O)(N1CCCCCC1)N1CCN(c2cccc(Cl)c2)CC1
  GIRK2 act: i

The listing continues:
| Molecule | GIRK2 act |
| --- | --- |
| O=C(c1nnn(-c2ccc(OC(F)(F)F)cc2)n1)N1CCN(Cc2ccncc2)CC1 | i |
| Cc1cc(C)c(NC(=O)Cn2c(C)cc(C)c(C#N)c2=O)c(C)c1 | i |
| COc1ccc(CNC(=O)Cc2nc(-c3ccncc3)n[nH]2)cc1 | i |
| O=C(COc1ccc2c(=O)c(-c3ccc4c(c3)OCCO4)coc2c1)c1ccc(Cl)cc1 | i |
| O=C(Cn1cccc(S(=O)(=O)N2CCCC2)c1=O)NCc1ccccc1 | i |
| O=C(Cn1c(=O)c(-c2ccccc2)nc2ccccc21)NCc1ccccc1Cl | i |
| O=C(NCC1CCN(Cc2ccccc2)CC1)Nc1ccc(F)cc1 | i |

Source: PubChem BioAssay
